High-throughput results deposited in PubChem by several laboratories.
Sa RN4220 lethal – growth inhibition of S. aureus RN4220, primary screen, OD600; 16 h; inhibition, % (concentration not given with the values); 0.33% of 330,000 active; AID 1259311, 2017;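 active means z-score of -3 or lower and OD600 up to 0.18 on both plates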;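 further: plate controls were untreated cells for no effect and reference antibiotic for full effect; stock transfer was 100 nL into about 80 µL; one replicate is shown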
Mtb hypoxia rep – PubChem AID 1159583; 0.1% of 300,000 active; M. tuberculosis hypoxia-regulated fluorescent reporter, fluorescence; fluorescence inhibition, % (test concentration not listed);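 active means 35 to 45% if threefold the growth effect, above 45% if 1.5-fold the growth effect; inactive means the rest, general growth blockers included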;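 further: wells of about 50 µL received 100 nL stock; 0% = vehicle wells and 100% = reference inhibitor wells; whole bacteria with a GFP reporter of the hypoxia response; strong numbers were not always called active; many hits fall short of the cut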
BJeLR lethal – MLPCN primary cell-based screen for lethality selective to Ras in HRASV12 cells | inhibition, % (test concentration not listed) | 0.17% of 300,000 active | BJeLR (HRASV12) viability, CellTiter-Glo ATP luminescence, 48 h; reference of the scale not given here;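 active means replicate mean above 50%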;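 further: 50 nL library stock added to about 25 µL; numbers are from one replicate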
PrP UTR inh – inhibition of PrP 5' UTR reporter expression; cell-based PrP 5' UTR mRNA reporter, plate reader; inhibition, % (concentration not given with the values); 0.35% of 340,000 active; AID 488862, 2010;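 active means every replicate at 50% or more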;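 further: 0 = median of the neutral control wells; tested in H4 reporter cells; numbers are from one replicate; inactives centre near -14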
Sa ugtP lethal – growth inhibition of ugtP-null S. aureus, primary screen, RN4220 ugtP deletion, OD600 | 16 h; some inactives read as strong as hits | growth inhibition, % (no concentration beside the values) | 0.54% of 330,000 active | AID 1259309, 2017;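 active means z-score under -3 and OD600 up to 0.15 on both plates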;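 further: plate controls were untreated wells for no effect and antibiotic for full effect; wells of about 80 µL received 100 nL stock; the first replicate is given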
Autofluor counter – compound fluorescence in toxin protease inhibitor counterscreen. compound autofluorescence counterscreen, microsphere flow cytometry; active compounds read high. 3.1% of 360,000 active. fluorescence intensity (no concentration beside the values);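 active means at least 3 SD above the mean of all compounds, about 16000 in these data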;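 further: 100 nL of 1 mM stock went into each well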
Mtb hypoxia rep growth – recorded beside Mtb hypoxia rep, whose call it bears; growth inhibition, %; measured here: M. tuberculosis growth (absorbance);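 0% = vehicle and 100% = reference antibiotic; read after six days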
* = called active by the depositor; nt = not tested or not shown. Outcome played no part in choosing rows, and some 4% of all compounds hit somewhere here.

Labels used below: A = Sa RN4220 lethal; B = Mtb hypoxia rep; C = Mtb hypoxia rep growth; D = BJeLR lethal; E = PrP UTR inh; F = Sa ugtP lethal; G = Autofluor counter
1) COc1ccc(OC)c(N2C(=NC(=O)C3CCCCC3)SC3CS(=O)(=O)CC32)c1 (stereo unspecified)
  A: 1.2	B: 3	C: 7	D: -2	E: -13	F: 2	G: 6756

2) CN(Cc1cnn(-c2ccccc2)c1)C(=O)C1CCC(=O)N(C2CC2)C1 (stereo unspecified)
  A: 3.1	B: 6	C: 9	D: 3	E: -10	F: 4	G: 6048

3) COC(=O)C1CCN(C(=O)Cc2ccc(Br)cc2)CC1
  A: -0.1	B: 5	C: 9	D: -6	E: -11	F: -6	G: 4096

4) O=C(CCC(=O)c1ccc(F)cc1)OC1CCOC1=O (stereo unspecified)
  A: 2.6	B: nt	C: nt	D: 6	E: -50	F: 3	G: 4422

5) Cc1cccc(NC(=O)NCCc2ccc(Cl)cc2)c1
  A: 3.2	B: 6	C: 1	D: 0	E: -7	F: -3	G: 3954

6) COc1cccc(N/C(SCc2cccc([N+](=O)[O-])c2)=C(/C#N)C(=O)NCc2cccs2)c1
  A: -5.8	B: -2	C: -1	D: 7	E: -12	F: -5	G: 9103

7) O=[N+]([O-])c1cccc(/C=N/Nc2nccnc2Cl)c1
  A: nt	B: nt	C: nt	D: 22	E: -61	F: nt	G: 7835

8) Cc1cc(C)n(C(=O)c2ccc(NC(=O)C3COc4ccccc4O3)cc2)n1 (stereo unspecified)
  A: 0.2	B: nt	C: nt	D: 6	E: -1	F: 4	G: 4430

9) O=C(CCN1CCCO1)NC1CCCc2c1cnn2-c1ccccc1F (stereo unspecified)
  A: 1.8	B: 2	C: 1	D: 1	E: -15	F: 0	G: 5374

10) CCCN1CN(Cc2ccccc2)CNC1=S
  A: 7.2	B: -6	C: -8	D: 18	E: -5	F: 9	G: 7502

11) CCNC(=S)N/N=C(\C)c1cccc(OC)c1
  A: nt	B: nt	C: nt	D: 3	E: -10	F: nt	G: 4466

12) CCn1c(CSc2ncccn2)nnc1SCC(=O)N1c2ccccc2CC1C (stereo unspecified)
  A: -1.3	B: 2	C: 8	D: 1	E: -9	F: 2	G: 23517*

13) COc1ccc(-c2cc(C(=O)Nc3c(Cl)cc(Cl)cc3Cl)c3ccccc3n2)cc1OC
  A: 5.0	B: 3	C: 2	D: 1	E: 2	F: -21	G: 2766

14) COCCCN1C(=O)C(=O)/C(=C(/O)c2ccc(C)cc2)C1c1ccccc1 (stereo unspecified)
  A: nt	B: nt	C: nt	D: -11	E: -3	F: nt	G: 3121

15) COC(=O)C1=CN(Cc2ccc(OC)c(OC)c2)C=C(C(=O)OC)C1c1cccc(OC)c1OC
  A: -1.9	B: 9	C: 9	D: -3	E: -5	F: 2	G: 3041

16) Cc1cc(C(=O)NN=Cc2cccnc2)cs1
  A: -1.8	B: 8	C: 5	D: nt	E: nt	F: 0	G: nt

17) CCOC(=O)N1CCN(CCC(=O)Nc2ccc(C)c(Br)c2)CC1
  A: -3.5	B: nt	C: nt	D: 2	E: -15	F: 6	G: 2184

18) COc1ccc(NC(=O)Nc2cccc3ccccc23)cc1S(N)(=O)=O
  A: -0.9	B: 0	C: 7	D: 3	E: -8	F: 2	G: 5588

19) COc1ccc(NC(=O)CN2C(=O)C(C)Oc3ccccc32)c(OC)c1 (stereo unspecified)
  A: 2.5	B: 8	C: 2	D: -6	E: -7	F: 6	G: 8147

20) Cc1cc(C(C)(C)C)cc(C)c1C[n+]1ccc2ccccc2c1
  A: 15	B: 1	C: 2	D: 21	E: -18	F: 11	G: 5205

21) S=C(Nc1ccccc1)N1CCOCCOCCN(C(=S)Nc2ccccc2)CCOCCOCC1
  A: 7.3	B: 21	C: -1	D: -10	E: -14	F: 3	G: 4924

22) O=C(NC1CC(=O)N(c2ccccc2)C1)N1CCN(C(=O)c2ccco2)CC1 (stereo unspecified)
  A: 2.1	B: -5	C: 5	D: 8	E: -19	F: 1	G: 5877

23) O=C(NCc1ccccn1)c1ccc2c(=O)n3nc(Nc4ccccc4)sc3nc2c1
  A: 3.3	B: -2	C: -1	D: 7	E: -9	F: -1	G: 3988

24) Nc1c(N(Cc2ccco2)C(=O)c2ccc(Br)cc2)c(=O)[nH]c(=O)n1Cc1ccccc1
  A: 1.0	B: 1	C: -4	D: nt	E: -17	F: 8	G: 3203

25) CN(C)C(=O)CCc1ccc2c3c([nH]c2c1)[C@]1(C)[C@@H](C(=O)N2CCOCC2)C[C@H](CC(=O)NCc2cccc(C(F)(F)F)c2)C(=O)N1CC3
  A: 4.0	B: -9	C: 7	D: nt	E: 1	F: 5	G: 3643

Reprinted from the part before: 5 compounds, then new ones.
Labels used below: A = Sa RN4220 lethal; B = Mtb hypoxia rep; C = Mtb hypoxia rep growth; D = BJeLR lethal; E = PrP UTR inh; F = Sa ugtP lethal; G = Autofluor counter
21) S=C(Nc1ccccc1)N1CCOCCOCCN(C(=S)Nc2ccccc2)CCOCCOCC1
  A: 7.3	B: 21	C: -1	D: -10	E: -14	F: 3	G: 4924

22) O=C(NC1CC(=O)N(c2ccccc2)C1)N1CCN(C(=O)c2ccco2)CC1 (stereo unspecified)
  A: 2.1	B: -5	C: 5	D: 8	E: -19	F: 1	G: 5877

23) O=C(NCc1ccccn1)c1ccc2c(=O)n3nc(Nc4ccccc4)sc3nc2c1
  A: 3.3	B: -2	C: -1	D: 7	E: -9	F: -1	G: 3988

24) Nc1c(N(Cc2ccco2)C(=O)c2ccc(Br)cc2)c(=O)[nH]c(=O)n1Cc1ccccc1
  A: 1.0	B: 1	C: -4	D: nt	E: -17	F: 8	G: 3203

25) CN(C)C(=O)CCc1ccc2c3c([nH]c2c1)[C@]1(C)[C@@H](C(=O)N2CCOCC2)C[C@H](CC(=O)NCc2cccc(C(F)(F)F)c2)C(=O)N1CC3
  A: 4.0	B: -9	C: 7	D: nt	E: 1	F: 5	G: 3643

26) O=C(Oc1ccccc1)c1cc2ccccc2o1
  A: 1.7	B: 9	C: -1	D: -2	E: -17	F: 101*	G: 2357

27) O=C(Nc1ccc(Cl)cc1)C1CCCN(S(=O)(=O)c2cnc[nH]2)C1 (stereo unspecified)
  A: 5.5	B: nt	C: nt	D: -3	E: -15	F: 9	G: 5375

28) CC(C)C(=O)NC(Nc1ccccc1F)C(Cl)(Cl)Cl (stereo unspecified)
  A: -0.1	B: 2	C: 0	D: -2	E: -20	F: -7	G: 21522*

29) CC(C)C[C@@H](CO)N1CCN(CC(C)C)CCC1=O
  A: -11	B: 8	C: 4	D: -8	E: -14	F: -1	G: 3712

30) O=C(O)CCC(=O)N1N=C(c2ccc(Br)cc2)CC1c1cccs1 (stereo unspecified)
  A: 5.7	B: 5	C: 0	D: 1	E: -22	F: -1	G: 4261

31) CCN(CC(=O)NC1CCS(=O)(=O)C1)S(=O)(=O)c1ccccc1Cl (stereo unspecified)
  A: 1.5	B: 13	C: -2	D: -10	E: -27	F: -1	G: 6720

32) CCCn1c(SCC(=O)Nc2ccc3c(c2)OCO3)n[nH]c1=O
  A: 4.1	B: 12	C: 5	D: nt	E: -22	F: 3	G: 4245

33) CCc1ccccc1NC(=O)Nc1c(C)n(C)n(-c2ccccc2)c1=O
  A: 0.5	B: 1	C: 1	D: 1	E: -7	F: 5	G: 4651

34) COc1ccc(CCn2c(NCc3ccco3)nc3c2c(=O)[nH]c(=O)n3C)cc1
  A: 2.9	B: nt	C: nt	D: -16	E: 2	F: 8	G: 4303

35) CCN(CC)S(=O)(=O)c1cccc(-c2n[nH]c(=S)n2C(C)COC)c1 (stereo unspecified)
  A: 9.7	B: -3	C: 1	D: 0	E: -32	F: 6	G: 4296

36) Cc1ccc(C(=O)NCCc2nnc3ccc(SCC(=O)Nc4c(C)cc(C)cc4C)nn23)cc1
  A: nt	B: nt	C: nt	D: -3	E: -6	F: nt	G: 9922

37) Cc1c(-n2cc(C(=O)O)c(=O)c3cc(F)c(N4CCCC(O)C4)c(F)c32)c(=O)n(-c2ccccc2)n1C (stereo unspecified)
  A: 2.3	B: 6	C: -5	D: -2	E: -3	F: 7	G: 2427

38) CC(=O)c1cccc(NC(=O)Cn2cnc(S(=O)(=O)N3CCCCC3)c2)c1
  A: 1.8	B: 13	C: 1	D: 3	E: -17	F: 1	G: 5261

39) Cc1ccc(C=C2C(=O)c3ccccc3C2=O)o1
  A: 3.6	B: 12	C: 0	D: 8	E: -26	F: 8	G: 8062

40) COc1ccc(CCNC(=O)[C@@H](NC(=O)N2CCn3c2nc2ccccc23)C(C)C)cc1OC
  A: 7.8	B: 6	C: -3	D: 2	E: -16	F: 13	G: 4358

41) CCCCN1C(=O)C(=O)NC[C@@H]1CCCCN
  A: nt	B: nt	C: nt	D: 0	E: -11	F: nt	G: 3291

42) CCSc1nc(O)cc(=O)n1-c1ccc(OC)cc1
  A: 5.1	B: 6	C: -2	D: 5	E: -25	F: -3	G: 10794

43) CC(=O)c1ccc(NC(=O)c2cc(=O)[nH]c3ccccc23)cc1
  A: nt	B: nt	C: nt	D: 6	E: -21	F: nt	G: 3172

44) CCC(Sc1nc2c(c(=O)[nH]1)CCC2)C(=O)Nc1cccc(OC)c1 (stereo unspecified)
  A: 3.6	B: 3	C: 0	D: 3	E: -6	F: 2	G: 15906

45) COC(=O)NCc1ccc(CNC(=O)OC)cc1
  A: 2.1	B: 11	C: 12	D: -12	E: -41	F: -1	G: 2570

46) CCC1C(c2ccccc2)=CCC(C(=O)O)C1C (stereo unspecified)
  A: 0.8	B: -3	C: -2	D: nt	E: -4	F: 2	G: 2876

47) CCCOc1ccc(CN(CCO)CCO)cc1C(=O)OC
  A: 1.0	B: 3	C: -2	D: 5	E: -1	F: 1	G: 7966

48) CC(C)c1cc(C(=O)N/N=C/c2c[nH]c3ccccc23)n[nH]1
  A: nt	B: nt	C: nt	D: -8	E: -8	F: nt	G: 3485

49) C1=NCCc2c1[nH]c1ccccc21
  A: -0.2	B: 4	C: 1	D: -8	E: -12	F: -8	G: 3593

50) CC(C)(C)CC(=O)Nc1cccc2c1CCCC2
  A: -5.0	B: nt	C: nt	D: 0	E: -19	F: 1	G: 3920

(further entries)
Order of results: Sa RN4220 lethal	Mtb hypoxia rep	Mtb hypoxia rep growth	BJeLR lethal	PrP UTR inh	Sa ugtP lethal	Autofluor counter
(51) O=C(OCC(=O)N1CCc2ccccc2C1)c1ccc(Cl)c([N+](=O)[O-])c1
  3.3	8	3	nt	-3	1	3849
(52) O=C(CCn1c(=O)[nH]c2ccccc2c1=O)N1CCN(c2ccc(Cl)cc2)CC1
  1.5	0	3	4	-37	1	8666
(53) O=C(NN=Cc1cc2cc3c(cc2nc1Cl)OCO3)c1ccncc1
  3.4	-4	-6	nt	nt	4	nt
(54) COc1ccc(Cl)cc1NC(=O)CN(C)C(=O)c1ccc(-n2cncn2)cc1
  -0.2	-2	-1	nt	-3	-2	3652
(55) CC(CC(=O)NCCc1ccc(F)cc1)c1ccccc1 (stereo unspecified)
  3.9	4	1	2	-20	5	3759
(56) COc1ccccc1NC(=S)NNC(=O)c1ccc(O)cc1
  0.9	nt	nt	-1	-34	5	4291
(57) Cc1nnc(C)n1N=Cc1ccc2c(c1)OCCO2
  3.7	8	6	nt	nt	4	nt
(58) CCN=C1SC(CC(=O)Nc2ccc(C(F)(F)F)cc2)C(=O)N1CC (stereo unspecified)
  4.1	10	5	6	-49	1	13535
(59) Cc1ccc(C)c(N(CC(=O)NN=C2CCCCCCC2)S(C)(=O)=O)c1
  0.6	nt	nt	4	-15	6	3543
(60) COc1ccc(-c2noc(CSc3nc(-c4ccccc4)cc(=O)[nH]3)n2)cc1OC
  31	-6	7	8	-19	1	2785

One compound at a time, from the list above.
`COc1ccccc1NC(=S)NNC(=O)c1ccc(O)cc1` in the list: Sa RN4220 lethal = 0.9; Mtb hypoxia rep = nt; Mtb hypoxia rep growth = nt; BJeLR lethal = -1; PrP UTR inh = -34; Sa ugtP lethal = 5; Autofluor counter = 4291
`O=C(NN=Cc1cc2cc3c(cc2nc1Cl)OCO3)c1ccncc1` in the list: Sa RN4220 lethal = 3.4; Mtb hypoxia rep = -4; Mtb hypoxia rep growth = -6; BJeLR lethal = nt; PrP UTR inh = nt; Sa ugtP lethal = 4; Autofluor counter = nt
`O=C(OCC(=O)N1CCc2ccccc2C1)c1ccc(Cl)c([N+](=O)[O-])c1` in the list: Sa RN4220 lethal = 3.3; Mtb hypoxia rep = 8; Mtb hypoxia rep growth = 3; BJeLR lethal = nt; PrP UTR inh = -3; Sa ugtP lethal = 1; Autofluor counter = 3849
